D2 ag – human D2 receptor agonism in beta-arrestin assay; activation, % (test concentration not listed); actives 0.084% (n = 360,000); AID 624465; P14416; DiscoveRx PathHunter D2 beta-arrestin, luminescence, 90 min; 100% = 57 uM dopamine signal; in the data active = activation above about 40%; inconclusive = about 15% to 40%; inactive = below about 15%; further: compound concentration not given in the record; the text of the record calls up to 30% inactive
Target sequence (P14416 whole entry, looked up): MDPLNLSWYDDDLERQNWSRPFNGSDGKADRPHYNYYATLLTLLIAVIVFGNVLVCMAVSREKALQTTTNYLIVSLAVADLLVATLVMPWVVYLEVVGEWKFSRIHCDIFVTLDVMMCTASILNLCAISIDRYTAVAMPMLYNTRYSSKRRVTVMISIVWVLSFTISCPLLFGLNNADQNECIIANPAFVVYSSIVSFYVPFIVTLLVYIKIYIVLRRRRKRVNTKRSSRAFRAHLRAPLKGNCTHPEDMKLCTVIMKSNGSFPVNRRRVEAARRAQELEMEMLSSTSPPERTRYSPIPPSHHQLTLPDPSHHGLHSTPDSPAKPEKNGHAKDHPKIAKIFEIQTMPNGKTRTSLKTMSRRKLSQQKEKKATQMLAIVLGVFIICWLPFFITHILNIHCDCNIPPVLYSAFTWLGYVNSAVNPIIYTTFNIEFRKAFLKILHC
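Agonist mode: compounds alone added to overnight-plated D2 PathHunter cells for 90 min at 37 C, with 57 uM final dopamine (EC100) defining full response. Beta-arrestin recruitment detected by chemiluminescent reagent, read after 1 h at ambient temperature.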
TRPML1 ag – human mucolipin-1 channel agonism. Q9GZU1. TRPML1-expressing cells, Ca2+ dye fluorescence, FDSS; host cell line not named in the record; reference of the full effect not given here. activation, % (concentration not given with the values). actives 0.12% (n = 410,000); in the data active = activation above about 50%; inconclusive = about 30% to 50%; inactive = below about 30%; further: 0% is about no effect; the text of the record puts the active cut at 80%
Target sequence (Q9GZU1 whole entry, looked up): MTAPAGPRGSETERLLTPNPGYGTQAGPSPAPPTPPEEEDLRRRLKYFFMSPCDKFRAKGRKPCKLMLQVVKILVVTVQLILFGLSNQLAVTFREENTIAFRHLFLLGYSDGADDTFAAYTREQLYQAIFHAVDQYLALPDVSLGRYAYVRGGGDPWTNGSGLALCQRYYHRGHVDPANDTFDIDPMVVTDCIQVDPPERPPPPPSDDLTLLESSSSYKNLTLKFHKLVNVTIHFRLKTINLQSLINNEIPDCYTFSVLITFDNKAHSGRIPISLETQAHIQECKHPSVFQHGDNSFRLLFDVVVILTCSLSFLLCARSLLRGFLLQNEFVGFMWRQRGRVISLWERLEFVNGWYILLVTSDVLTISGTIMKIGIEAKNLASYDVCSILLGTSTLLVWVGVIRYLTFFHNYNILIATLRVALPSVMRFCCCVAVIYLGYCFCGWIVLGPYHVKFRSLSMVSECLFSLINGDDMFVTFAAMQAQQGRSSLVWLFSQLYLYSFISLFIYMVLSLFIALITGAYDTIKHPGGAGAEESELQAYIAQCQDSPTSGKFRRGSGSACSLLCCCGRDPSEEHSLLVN
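Kinetic FDSS Ca2+ read in Tet-induced TRPML1-DL cells (ABD Ca8 dye plus quencher, 45-90 min RT loading): baseline, then compound, then 110 s agonist window; EC80 agonist 54-4 at 4uM final added afterwards for a 110 s antagonist window.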
TRPML1 inh – human mucolipin-1 channel inhibition; Q9GZU1; TRPML1-inducible cells, Ca2+ dye fluorescence, FDSS; hits give low values; inhibition of EC80 agonist-evoked calcium signal; actives 0.02% (n = 390,000); activity change, negative = inhibition, % (no concentration beside the values); in the data active means activity change below about -50%; inconclusive means about -30% to -50%; inactive means above about -30%;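 further: stimulus is agonist 54-4 at its EC80 concentration; on the % scale 0 is the no-effect control and ±100 the full control effect; compound concentration not given in the record; the text of the record puts the active cut at -80%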
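Tet-induced TRPML1-DL cells loaded with Ca8 no-wash calcium dye were read kinetically on FDSS. Compound addition was followed by EC80 agonist 54-4 (4 uM final); inhibition was read over 110 s.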
Six1-Eya2 blk – Six1/Eya2 interaction inhibition; activity change, % (test concentration not listed); AlphaScreen GST-Six1/His-Eya2 binding, biochemical; hits give low values; control for the full effect not named in the record; AID 651725; actives 0.56% (n = 360,000); Q15475+O00167; in the data active = activity change below about -65%; inconclusive = about -30% to -65%; inactive = above about -30%; further: on the % scale 0 is the no-effect control and ±100 the full control effect; compound concentration not given in the record
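AlphaScreen luminescence read after one hour at 37 °C in darkness. Pin-transferred compounds met GST-Six1 and His-Eya2 protein (5X stock 250 nM/500 nM) plus glutathione donor and Ni-chelate acceptor beads (5X, 50 ug/mL).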
PINK1 expr mod – PINK1 expression modulation. PINK1 immunofluorescence, high-content cytometry, 24 h. Potency, µM (series often up to 76.6 µM), for inactives: at the top dose activation (PINK1 increase), most hits filed as activators. actives 0.2% (n = 410,000). AID 624263; active = well fitted activation curve with a large enough effect; inconclusive = small, poorly fitted or top-dose-only effect; inactive = flat fitted curve, though single readings scatter; cell line not stated here;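 further: potency means the concentration at half of the fitted maximal effect; % of control where 0% means no effect; nearly all actives have a fitted effect of over 65% in size; a mitochondrial uncoupler was the plate control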
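Compound titrations (5 concentrations, 24 h) on a stable cell line; DMSO and CCCP controls. Endpoint: fixed-cell PINK1 immunofluorescence with mitochondrial, cell and nuclear markers, scanned by microplate cytometer.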
CtBP-E1A blk – blocks the CtBP interaction with E1A; AlphaScreen GST-E1A/His-CtBP binding, 1536-well; hits give low values; control for the full effect not named in the record; activity change, % (test concentration not listed); actives 0.49% (n = 340,000); in the data active means activity change below about -65%; inconclusive means about -30% to -65%; inactive means above about -30%; further: on the % scale 0 is the no-effect control and ±100 the full control effect; compound concentration not given in the record
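In 5 uL wells, 23 nL compound meets equimolar GST-E1A and His-CtBP (5X stock 125 nM each) for 2 h, 37 °C. Beads (5X, 50 ug/mL) then 1 h, 37 °C, dark.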
Numbers without * were called inactive; ? = inconclusive; · = no result given; [ ] = another dose, or the depositor's remark.

SMILES | D2 ag | TRPML1 ag | TRPML1 inh | Six1-Eya2 blk | PINK1 expr mod | CtBP-E1A blk
COc1ccc(C(=O)C2CCCN(C(=O)c3ccc(C(C)=O)s3)C2)c(C)c1 (configuration not stated) | -1.9 | 1.4 | 6 | 19 | -0.5% | 1
O=C(COC(=O)c1cccs1)Nc1cccc(S(=O)(=O)NC2=NCCCCC2)c1 | 8.3 | 1.7 | -12 | -3 | 0.6% | ·
Cc1ccc[n+](CC(=O)/C=C2\N(C)c3ccccc3C2(C)C)c1 | -2.4 | 0.0 | -16 | 7 | 1.1% | 0
CCOC(=O)c1[nH]ncc1CN1CCCC(C(=O)c2ccc(OC)c(OC)c2)C1 (configuration not stated) | 0.6 | -0.6 | 9 | 3 | 1.3% | 4
O=C1CCCc2cc3c(cc21)CCCC3 | -2.3 | -0.7 | 6 | 8 | 6.2% | 3
CNc1ccccc1C(C)(C)c1cc(-c2ccc(F)cc2)no1 | 3.4 | 1.3 | -18 | 1 | 5.9% | 1
CCC(=O)Nc1ccc2c(c1)nc(CCN1CCN(C)CC1)n2C | -3.1 | 0.9 | -16 | -1 | -0.4% | 3
NNC(=O)COc1ccc(-c2n[nH]c(C(F)(F)F)c2-c2ccc(Br)cc2)c(O)c1 | 1.8 | -0.2 | -7 | -2 | 12% | 6
CC(C)C(=O)N1CCC1(C)C(=O)Nc1ccccc1OC(F)F (configuration not stated) | 0.2 | -0.5 | · | 13 | 0.8% | 8
CCN(CCO)Cc1cc(=O)oc2cc3c(cc12)CCC3 | 3.1 | 0.1 | -10 | 3 | -0.1% | 6
CCCn1ncc(CN2CCC(CO)(CC3CCCCO3)CC2)c1C (configuration not stated) | -5.8 | 0.1 | -7 | -8 | 0.3% | 4
Cc1ccc(-n2nc(C)c3c(C)cc(=O)n(CC(=O)N4CCCc5ccccc54)c32)cc1 | · | 0.7 | 6 | · | 1.4% | ·
CCN(C(=O)Cn1c(=O)oc2ccccc21)c1cccc(C(F)(F)F)c1 | -1.1 | -1.0 | -10 | 5 | -1.6% | 6
[O-][n+]1c2c(nn1-c1ccc(Cl)c(Cl)c1)-c1nonc1CC2 | 0.2 | -0.6 | 5 | 5 | 16% | 5
O=C(Nc1ccc(CN2CCOCC2)cc1)c1ccc(N2CCCC2)c([N+](=O)[O-])c1 | -4.9 | 0.3 | 6 | -1 | 0.0% | -11
CN(C)c1ccc(CN2CCC(C(=O)NC(c3ccc(Cl)cc3)c3cnccn3)CC2)cc1 (configuration not stated) | -4.7 | -0.6 | · | -27 | 0.1% | -22
COC(=O)c1ccc(NC(=O)CCS(=O)(=O)c2ccc3c(c2)NC(=O)C(C)S3)cc1 (configuration not stated) | 0.7 | 0.1 | 1 | -1 | 0.4% | -8
Cc1cc(C)cc(NC(=O)CN2C(=O)NC(Cc3c[nH]c4ccccc34)C2=O)c1 (configuration not stated) | 1.4 | 0.0 | 3 | -13 | 1.2% | 25
COCCNc1nc(-c2cc(F)ccc2C)c2sc(-c3ccccc3)cc2n1 | 7.0 | -0.4 | · | 8 | ? | 9
Cc1c(Cl)cccc1NC(=O)Cn1nc(C)c2sc3ccccc3c2c1=O | · | 0.3 | 8 | · | 1.2% | ·
Nc1ccccc1C#Cc1ccccc1 | -3.0 | 0.4 | 16 | 6 | 7.2% | 12
CCN1CCN(C(=O)C2CCCN(c3ncnc4c3nc3n4CCCCC3)C2)CC1 (configuration not stated) | 0.7 | -0.6 | -1 | 9 | -0.1% | 0
Cc1cccc(-c2nc(SCCCOc3ccccc3Cl)n3[nH]c(=O)cc3n2)c1 | · | -0.7 | -6 | · | 5.9% | ·
O=C(CCS(=O)(=O)Cc1ccccc1F)NCc1ccccc1Cl | 0.8 | -0.8 | 11 | 6 | -2.9% | 1
O=C(/C=C/c1ccc([N+](=O)[O-])cc1)Oc1ccc(/C=N/NC(=O)c2ccncc2)cc1 | 8.8 | 0.4 | 43 | ? | -0.5% | ·
Cc1cc(C)c(C#N)c(SCC(=O)C2CC2)n1 | 2.0 | 1.1 | 3 | 5 | -0.3% | ·
O=C(Oc1ccc(-c2cnc3ccccc3n2)cc1)c1ccc(Cl)c([N+](=O)[O-])c1 | -4.9 | 0.0 | 1 | 1 | -2.3% | 0
Cn1c(=O)c2c(SCC(=O)N3CCc4ccccc43)nc(-c3ccc(Cl)cc3)nc2n(C)c1=O | · | -0.8 | -2 | · | 1.8% | ·
CC1SCC(=O)N(CC(=O)NCc2ccccc2)C1=O (configuration not stated) | 0.9 | -1.1 | -15 | -1 | -0.7% | ·
CCOc1ccc(C(c2nnnn2C(C)(C)C)N2CCN(C(=O)c3ccco3)CC2)cc1 (configuration not stated) | -1.1 | 0.4 | 16 | -7 | 1.4% | 0
CN1C(C(=O)NCc2cccc(Br)c2)CC2Cn3c(nc4cc(Cl)c(Cl)cc43)C21 (configuration not stated) | 0.0 | -0.7 | 13 | 4 | 2.5% | 1
CC(/C=N\N1CCN(Cc2ccc(C)cc2)CC1)=C\c1ccccc1 | -2.2 | 0.2 | 14 | -4 | 0.2% | 1
CCc1ccccc1NC(=O)N[C@@H](C)C(=O)O | ? | 0.5 | -5 | 5 | 2.1%[38.3 µM] | 4
CCN(CC)S(=O)(=O)c1ccc(N2CCCC2)c(NC(=O)Cc2cc(OC)c(OC)c(OC)c2)c1 | 0.6 | -0.5 | -17 | 5 | 1.6% | -5
CC1CCN(C(=O)c2ccc(N3CCOCC3)c([N+](=O)[O-])c2)CC1 | -1.0 | 0.1 | 0 | -7 | 0.9% | ·
Nc1cc(S(=O)(=O)Nc2ccc(Cl)cc2)ccc1N1CCOCC1 | -0.8 | 8.5 | -5 | 1 | -1.0% | -6
Cc1cc2nc(-c3ccc[nH]c3=O)[nH]c2cc1C | -3.4 | 0.5 | -7 | 19 | 1.3% | ·
O=C(CN1CCN(C(=O)C2CC2)CC1)Nc1cc(C(F)(F)F)cc(C(F)(F)F)c1 | 0.6 | 0.3 | 15 | 4 | -1.9% | 3
COc1ccccc1NC(=S)NCCSc1ccc(C)cc1 | -0.9 | 1.2 | -7 | -9 | 0.0% | -3
O=C1[C@H]2[C@@H](c3ccc(F)cc3)N3C(=O)N(c4ccccc4)C(=O)[C@@]3(Cc3ccccc3)[C@H]2C(=O)N1C1CCCCC1 | -1.0 | -0.6 | 4 | -6 | 2.1% | -1
COc1ccc(-c2ccccc2[C@H]2[C@@H]3C=CC[C@@H](C)[C@@H]3C(=O)N2Cc2ccccc2)cc1 | -2.9 | 0.3 | 5 | -8 | 14% | -2
CC1CCCCN1C(=O)Cn1c(SCC(=O)N(C)c2ccccc2)nc2ccccc21 (configuration not stated) | · | -1.0 | -1 | · | 1.3% | ·
COc1cccc(/C=C2\SC(=O)N(CC(=O)NC3CCS(=O)(=O)C3)C2=O)c1 (configuration not stated) | -2.3 | -0.5 | 5 | 5 | 7.5% | -14
COc1ccccc1NC(=O)CSc1nc2ccccc2cc1Cc1ccccc1 | -3.4 | 1.6 | 5 | 0 | -1.3%[38.3 µM] | 6
CN(C)Cc1c(C(C)(C)O)[nH]c2ccc(C(F)(F)F)cc12 | -1.8 | -0.6 | 0 | 3 | -1.0% | 6
CCC(Cc1ccccc1)NS(=O)(=O)c1c(C)nc2sccn2c1=O (configuration not stated) | -6.0 | 0.5 | 0 | 3 | 3.5% | 4
COc1ccc(-c2cc(N3C(=O)Nc4ccccc4N3O)n[nH]2)cc1OC | -1.7 | -1.5 | 3 | -17 | -0.6% | -9
Cc1ccc(C(=O)Nc2cccc(C(=O)O)c2)cc1S(=O)(=O)N1CCOCC1 | 1.8 | 0.7 | 14 | 9 | · | 7
N#Cc1c(-c2ccccc2)cc(C2CC2)nc1N | -3.6 | 0.0 | 4 | 5 | 6.4% | 17
COc1ccc2cc(C(=O)NCc3ccccc3)c(=Nc3ccc(C(=O)O)cc3)oc2c1 | -5.4 | 0.7 | 14 | 5 | 1.6% | ·
New compounds follow
SMILES | D2 ag | TRPML1 ag | TRPML1 inh | Six1-Eya2 blk | PINK1 expr mod | CtBP-E1A blk
CCOC(=O)c1ccc(NC(=O)COc2ccc(S(=O)(=O)NC(C)C)cc2)cc1 | -0.3 | -0.6 | -2 | 1 | 6.0%[38.3 µM] | 0
O=C(NCc1ccccc1F)C1CCCN1C(=O)Nc1ccc(F)cc1 (configuration not stated) | -2.6 | 0.6 | 15 | 2 | 1.7% | -5
Cc1cccc(CSc2nnc([C@@H]3CCCN3C(=O)OC(C)(C)C)o2)c1 | -3.0 | 0.7 | -10 | 0 | 2.8% | -1
Cc1ccc(NC(=O)NC(=O)CN2CCCC2c2ccc3c(c2)OCCO3)cc1C (configuration not stated) | -0.9 | 0.6 | 9 | -12 | 2.4% | -3
COCCN(C(=O)CNC(=O)c1cccs1)C(C(=O)NC1CCCC1)c1cccs1 (configuration not stated) | -1.5 | 1.7 | -7 | 5 | -1.4% | 6
COc1ccc(Cn2nnnc2C(c2cc3cc(C)ccc3[nH]c2=O)N2CCOCC2)cc1 (configuration not stated) | -0.5 | 1.1 | 14 | 6 | -1.4%[38.3 µM] | 6
Cc1cc(C)n(-c2cc(N3CCOCC3)ncn2)n1 | 0.0 | -0.5 | -2 | -6 | -0.4% | 1
O=C(C[C@@H]1C/C=C\C[C@@H](Cc2ccc(F)cc2)C(=O)OCCNC1=O)NCCO | -2.1 | 0.2 | -8 | 10 | -0.1% | 1
CCCc1nc2sc3c(c2c(=O)n1NC(=O)CCC(=O)O)CCCC3 | -2.0 | 0.3 | 22 | 6 | -1.3%[38.3 µM] | 11
CCOc1cc(C(=O)OCC(=O)Nc2ccc(SC(F)F)cc2)cc(OCC)c1OCC | -0.6 | -0.2 | -11 | 12 | 2.3% | 9
O=C(Nc1ccccc1C(F)(F)F)c1ccc(F)c(S(=O)(=O)N2CCOCC2)c1 | -0.6 | -0.6 | -4 | -4 | · | 12

Screens as filed in PubChem BioAssay.
